Ab BasE inh: BasE siderophore enzyme inhibitors, primary screen, biochemical, Acinetobacter baumannii ATCC 17978, fluorescence polarization; AID 485350, 2010; purified BasE, fluorescence polarization binding displacement; inhibition, % (test concentration not listed); hit rate 0.1% among 84,000;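 active = both replicates above 25% with normal brightness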;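 note: 0% = negative plate control signal and 100% = positive plate control signal; stock transfer was 100 nL into about 30 µL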
LANA-nucl inh: inhibitors of KSHV LANA-nucleosome binding, primary screen, biochemical, fluorescence polarization, FITC-LANA1-23, chicken nucleosomes. FITC-LANA1-23 / chicken nucleosome fluorescence polarization; stronger effect = lower value. z-score (no concentration beside the values). hit rate 0.3% among 51,000;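 active = both repeat wells score below -2 in polarization z-score versus plate sample wells, excluding overly bright wells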;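 note: 100 nL library stock added to about 30 µL; numbers are from one replicate; some results filed as inactive read as strong as hits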
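System – purified chicken nucleosomes with FITC-labelled LANA N-terminal peptide (1-23) · Amount – 240 nM purified chicken nucleosomes (480 nM peptide binding sites), final · Also added – 50 nM FITC-LANA1-23 probe · Medium – TEN-BT buffer, pH 7.5 · Incubation – compound with peptide–nucleosome mix 10–45 min at room temperature · Detection – fluorescence polarization, ex 480 nm, em 535 nm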
* = called active by the depositor; . = no result given; & = joins results of further samples. An excerpt; count on the stated rates, not on these rows.

structure,Ab BasE inh,LANA-nucl inh
CC1CCc2nn(CC(=O)NCCC3=CCCCC3)cc2C1 (stereo not given),3.0,-0.7
CCOc1ccc(S(=O)(=O)NN=C2CCN(C(C)=O)CC2)cc1,1.1,.
C=CCNC(=O)c1oc2ccc(S(=O)(=O)N3CCCCCC3)cc2c1C,-0.7,-0.72
COC(=O)C1CCN(S(=O)(=O)c2cccc3nsnc23)CC1,2.4,-1.8
NC(=NCc1ccco1)NC(=O)c1ccc(Cl)cc1,1.2,.
Cc1cccc(N(C)Cc2nnc(-c3ccccc3Cl)o2)c1,3.0,-0.42
CC(NCCC(c1ccccc1)c1ccccc1)c1ccccc1 (stereo not given),-4.7&2.9,-0.94&0.009
COc1ccc(N(C(=O)Cc2ccc(OC)c(OC)c2)C2C=CS(=O)(=O)C2)cc1 (stereo not given),-0.3,-0.088
O=C(Oc1ccccc1-c1nnco1)c1ccc(C(F)(F)F)cc1,3.1,0.51
O=C(Nc1ccc2c(c1)OCC1CCCN21)C1=Cc2ccccc2OC1 (stereo not given),1.7,0.12
O=C(CN1C(=O)CCC1=O)Nc1nc(-c2cccs2)cs1,-1.5,.
O=C(c1ccc2c(c1)S(=O)(=O)N=C1CCCCCN12)N1CCN(S(=O)(=O)c2ccc(F)c(F)c2)CC1,-0.3,.
CCOC(=O)C1=C(CC)NC2=C(C(=O)CCC2)C1c1ccccc1 (stereo not given),0.4,-1.2
COC(=O)/C(=C/c1ccc2c(c1)OCO2)NC(=O)c1ccc(C(C)(C)C)cc1,-0.4,.
C/C(COc1ccc(-c2csnn2)cc1)=N\NC(N)=S,-4.5,1.8
O=C(Nc1ccc(F)cc1)NC1CCN(CC(=O)c2ccc(F)cc2)CC1,5.0,-0.22
O=S(=O)(Nc1ccc(CSc2ccccc2)cc1)c1ccc2c(c1)OCCO2,-2.0,.
CCN(CC)C(=O)C(Sc1nnc(C2CC2)n1C1CC1)c1ccccc1 (stereo not given),2.4,.
CC(NC(=O)CCCc1nnc2n(C)c(=O)c3sccc3n12)c1ccccc1 (stereo not given),-2.4,2.3
CC1=CC2CC1C1C(=O)N(C(C)C(=O)N3c4ccccc4CC3C)C(=O)C21 (stereo not given),-2.0,.
O=S1(=O)C=Cc2ccc(NC(=S)Nc3ccccc3C(F)(F)F)cc21,-6.3,.
Cc1ccc(S(=O)(=O)c2c(Cl)sc(=O)n2C)cc1,-0.5,-1.1
Cc1cc(C)nc(NC(=O)c2c(C)nc3sccn23)c1,.,-0.0035
Cc1cccc(CSC2=NCCN2C(=O)c2cccs2)c1,0.9,-0.38
CC(=O)N1CCCC1C(=O)O (stereo not given),1.5,-0.63
O=C(Cc1cccc2ccccc12)NC1CCCCNC1=O (stereo not given),1.2,.
Cc1cc(-c2ccc3ccccc3n2)nc2ccc3ccccc3c12,2.1,.
O=C(CCN1C(=O)c2ccccc2C1=O)NC1CCCCCC1,2.0,-0.23
COc1ccc(N(C)C(=O)Cc2c(C(=O)O)[nH]c3ccccc23)c(OC)c1,1.4,-0.43
OCCCNc1ncnc2oc(-c3ccccc3)c(-c3ccccc3)c12,1.9,-0.28
CCc1cccc(NC(=O)CC2SC(N3CCCC3)=NC2=O)c1 (stereo not given),-3.2,.
CCOc1ccc(-n2c(-c3nn(C)cc3Cl)n[nH]c2=S)cc1,3.8,.
O=C(NCc1cccnc1)c1cn(Cc2ccccc2)nn1,0.9,-0.16
CC1(C)CC(NC(=O)C2CCCCC2)CC(C)(C)N1,0.1,1.2
COC(=O)c1c(C)nc2ccccc2c1C(=O)O,4.6,-0.31
Cc1cc2oc(=O)cc(CN3CCC(C)CC3)c2cc1C,0.3,.
COc1ccccc1COCC(O)CN(Cc1ccco1)Cc1ccccc1O (stereo not given),0.4,.
CC(Sc1ccc(S(=O)(=O)N2CCN(C)CC2)cn1)C(=O)NCC1CCCCC1 (stereo not given),0.3,.
O=C(c1cnn2c(C(F)F)cc(-c3ccccc3)nc12)N1CCCC1,-0.3,-0.31
CCC(=O)NC(=S)c1c(C)nc2sccn12,2.6,.
O=C(NCc1nc(-c2ccccc2Cl)no1)c1cccs1,-3.5,0.41
CC(C(=O)N1CCNC1=O)N1CCCC1c1cccs1 (stereo not given),2.1,.
N=c1oc2ccccc2cc1C(=O)Nc1ccc(F)cc1,-3.8,.
COc1ccc(-c2coc3cc4oc(=O)c5c(c4cc23)CCC5)cc1F,1.8,0.33
Cn1c(C(C)(C)C)n[nH]c1=S,0.4,.
CCCc1cc2c(=O)c(-c3ccc(C(=O)OCC)o3)coc2cc1OC,1.1,.
O=C(OCc1ccco1)c1ccc(Cl)cc1,-0.1,-0.48
CN(C(=O)COC(=O)C1CCN(S(=O)(=O)c2cccs2)CC1)c1ccccc1,-0.4,.
COC(=O)Cn1c(CCS(=O)(=O)c2ccc(Br)cc2)nc2ccccc21,-1.0,0.48
Cc1ccc(CN(C)C(=O)c2ccc(S(=O)(=O)N3CCCCC3)cc2)o1,0.0,.
Cc1cn(S(=O)(=O)c2ccc(F)cc2)cn1,0.2,.
CCOc1ccc(N=c2scc(-c3ccco3)n2/N=C/c2c[nH]c3ccccc23)cc1,0.6,.
O=S1(=O)CCN(Cc2csc(-c3cccs3)n2)CC1,.,-1.7
CCn1c(SCC(=O)OCC(=O)Nc2ccc3ccccc3c2)nnc1-c1cccs1,-4.7,.
COc1cc2nc(CSc3ccc(Cl)cc3)n(CC#N)c(=O)c2cc1OC,-0.1,.
COc1ccc(C2(O)CCN(CC(=O)NC(C)C)CC2)cc1,2.3,-0.89
CCN(CC)C(=O)CSc1ncc(CO)n1Cc1ccccc1,2.0,-0.54
Cc1onc(-c2ccccc2)c1NC(=O)N(C)C1CCCCC1,.,-0.24
CCOC(=O)c1ccccc1NC(=O)c1ccco1,2.5,0.077
CCOC(=O)c1ccncc1,0.6,.

(continued)
Under each structure: Ab BasE inh | LANA-nucl inh
N#CCN(C(=O)CSc1nc2sc3c(c2c(=O)n1Cc1ccco1)CCCC3)c1ccccc1
 : -2.1 | .
O=C(Oc1c(Cl)cc(Cl)c2cccnc12)c1ccco1
 : -5.8 | -1.1
CC1CCC(C(C)C)C(OC(=O)COC(=O)c2ccncc2)C1 (stereo not given)
 : 0.8 | .
CCc1ccc(C#N)cc1
 : 0.1 | .
CCCC(=O)Nc1cc2nn(-c3ccc(C)cc3)nc2cc1C
 : 2.8 | -0.8
CC(C)(C)C(=O)CSc1nnc(-c2ccncc2)n1-c1ccccc1
 : 0.9 | .
CN(C)c1ccc(C(c2nnnn2CCOC(=O)Nc2ccc(Cl)cc2)N2CCOCC2)cc1 (stereo not given)
 : 1.5 | .
NC(=O)COC(=O)c1ccc2c(c1)OCO2
 : 4.7 | .
CCN1C/C(=N\S(=O)(=O)c2ccccc2)N(CC)C1=O
 : -1.0 | -0.036
Cc1cc(C)n(-c2nc(C(=O)O)cs2)n1
 : -0.6 | -1
Nc1n[nH]c(C(=O)N/N=C/c2cccs2)n1
 : -0.6 | 0.77
OCC(CO)(CO)N=Cc1c(O)ccc2ccccc12
 : -0.9 | -0.3
O=C(O)CCC(=O)NCc1ccc(C(=O)O)cc1
 : 3.3 | -1.1
CN1C=NS(=O)(=O)c2ccccc21
 : -1.1 | -0.22
O=C1C/C(=N\NC(=S)Nc2ccc(S(=O)(=O)N3CCOCC3)cc2)c2ccccc21
 : 0.5 | .
CCC1S/C(=N\S(=O)(=O)c2ccccc2)N(C2CCCCC2)C1=O (stereo not given)
 : 1.0 | .
Cc1cc(NC(=O)[C@H](C)NC(=O)c2ccco2)ccc1Br
 : -2.5 | .
COC(=O)c1ccccc1NC(=O)C(C)C
 : 0.2 | 0.5
COc1ccc(NCc2nnc(SCC(=O)c3ccc(C)cc3)o2)cc1
 : 2.4 | -0.35
N#C/C(=C(/O)CSc1nnc(Cc2cccs2)n1C1CCCCC1)c1nc2ccccc2[nH]1
 : -5.0 | .
CCOC(=O)CSc1nc2c(C)ccc(C)c2cc1C#N
 : -0.1 | 1.1
COc1ccc(CCNc2ncnc3c2oc2ccccc23)cc1
 : -0.4 | .
CCN(CC)c1nc2ccccc2n(Cc2cccc(OC)c2)c1=O
 : 2.2 | .
O=C(CN1C(=O)C2CC=CCC2C1=O)NCc1cccs1 (stereo not given)
 : 0.6 | .
O=C(Cc1ccc2c(c1)OCCO2)N1CCc2ccccc21
 : -1.7 | .
O=C(OCc1cc(=O)n2c(n1)sc1ccccc12)c1ccccc1
 : 2.1 | .
Nc1nc(OCC(F)(F)F)nc(OCC(F)(F)F)n1
 : -0.8 | 0.17
CC(=O)NS(=O)(=O)c1ccc(NC(=O)[C@@H]2CCCC[C@@H]2C(=O)O)cc1
 : 2.3 | -0.22
O=C(Oc1ccc(-c2nnco2)cc1)c1sc2ccccc2c1Cl
 : -0.7 | .
COCc1cc(C)nc(SC)c1C#N
 : 1.6 | -0.78

Arranged by length of the SMILES (lowest first): some entries from above
Under each structure: Ab BasE inh | LANA-nucl inh
CCN(CC)C(=O)CSc1ncc(CO)n1Cc1ccccc1
 : 2.0 | -0.54
Cc1ccc(CN(C)C(=O)c2ccc(S(=O)(=O)N3CCCCC3)cc2)o1
 : 0.0 | .
O=C1C/C(=N\NC(=S)Nc2ccc(S(=O)(=O)N3CCOCC3)cc2)c2ccccc21
 : 0.5 | .

Reprinted from above for reference:
Under each structure: Ab BasE inh | LANA-nucl inh
CC1CCc2nn(CC(=O)NCCC3=CCCCC3)cc2C1 (stereo not given)
 : 3.0 | -0.7
CCOc1ccc(S(=O)(=O)NN=C2CCN(C(C)=O)CC2)cc1
 : 1.1 | .

Next part:
Under each structure: Ab BasE inh | LANA-nucl inh
COc1ccc(NC(=S)N2CCN(Cc3c(C)nn(C)c3C)CC2)cc1OC
 : 0.6 | -1.1
OC1(C#CC#CC2(O)CCCCC2)CCCCC1
 : -0.9 | -0.51
CCOc1cccc(/C=N/NC(=O)c2ccncc2)c1O
 : 1.1 | 0.76
Cc1[nH]ccc(=O)c1Oc1ncc(C(F)(F)F)cc1Cl
 : . | -0.35
CCCCN(C(=O)C1CCCO1)c1ccccc1 (stereo not given)
 : 1.5 | 0.47
CCNc1nc(NC(C)C)nc(OCCOC(C)=O)n1
 : 3.0 | -1.2
CCOC(=O)N1CCC2(CC1)OC(=O)C(C)=C2C(=O)NCCc1ccc(Cl)cc1
 : -1.7 | -0.53
COc1ccc(-c2cc(C(F)F)nc(NN)n2)cc1
 : 3.5 | 1.1
Cc1ccc(S(=O)(=O)NC2=NCN(C)CN2)cc1
 : 1.3 | .
COc1ccc(OC)c(NC(=O)CCNS(=O)(=O)c2ccc3[nH]c(=O)oc3c2)c1
 : -0.7 | 0.42
COC(=O)/C=C/c1ccc2c(c1)OCO2
 : . | 0.047
Cc1cc(NC(=O)COC(=O)COc2ccc3c(c2)CCC3)no1
 : -4.2 | .
O=C1Cc2cc(C(=O)CSc3ccc4c(c3)OCCCO4)ccc2N1
 : -0.1 | .
CCC(Sc1nc2ncccc2o1)C(=O)Nc1ccccc1C(F)(F)F (stereo not given)
 : 2.0 | -0.002
Cc1cc(-c2ccsc2)n[nH]c1=O
 : 1.1 | 0.17
CCOC(=O)c1cn2c3c(c(F)c(F)cc3c1=O)OCC2C (stereo not given)
 : 1.6 | .
N#CCc1nnc(N2CCOCC2)n1-c1ccccc1
 : -0.4 | .
C/C(=N\OCc1nnc(-c2cccs2)o1)c1cc2ccccc2o1
 : -1.9 | .
CC(C)Cn1c(SCCc2ccccc2)nnc1-c1cccc(S(=O)(=O)N2CCOCC2)c1
 : -1.0 | .
COc1ccccc1OCC(O)CO (stereo not given)
 : -0.3&2.2 | 0.15&-0.61&-0.48&0.98

Molecules shown so far that have bromine, in the order listed:
Under each structure: Ab BasE inh | LANA-nucl inh
COC(=O)Cn1c(CCS(=O)(=O)c2ccc(Br)cc2)nc2ccccc21
 : -1.0 | 0.48
Cc1cc(NC(=O)[C@H](C)NC(=O)c2ccco2)ccc1Br
 : -2.5 | .

The listing continues.
Under each structure: Ab BasE inh | LANA-nucl inh
Cc1noc(C)c1COc1ccc(C(=O)NC2=NCCS2)cc1
 : 0.1 | .
CCn1c(C)[n+](CC)c2ccc(S(N)(=O)=O)cc21
 : 1.2 | -0.37
COc1ccc(-c2noc(CSc3nnc(-c4ccncc4)n3CC(C)C)n2)cc1
 : -0.8 | 0.87
O=C(CSc1nc(N2CCCCC2)nc(N2CCCCC2)n1)N1CCc2ccccc21
 : 0.7 | 0.028
COc1ccccc1C=NC12CN3CN(CN(C3)C1)C2
 : 6.9 | -0.66
O=c1c2c([nH]c3ccccc13)CCC2
 : 3.6 | -0.7
Cc1cnc(=O)[nH]c1SCc1cccc(C(F)(F)F)c1
 : 0.8 | 1.4
Nc1nonc1C(=O)OCC(=O)c1ccc(Cl)cc1
 : -0.9 | .
NC1C2CC3CC(C2)CC1C3 (stereo not given)
 : 1.8 | .
C[C@]1(NC(=O)CN2CCCCC2)CCCCC1c1ccc(O)cc1 (stereo not given in full)
 : 2.0 | -0.08

Three entries already listed, sorted by their value in LANA-nucl inh, lowest first.
smiles | LANA-nucl inh
O=c1c2c([nH]c3ccccc13)CCC2 | -0.7
CCn1c(C)[n+](CC)c2ccc(S(N)(=O)=O)cc21 | -0.37
C[C@]1(NC(=O)CN2CCCCC2)CCCCC1c1ccc(O)cc1 (stereo not given in full) | -0.08

Screening data as filed in PubChem BioAssay.
